# Assay outcomes (PubChem)
# Rce1 inhib: yeast Ras-converting enzyme inhibition; Q03530; yeast membranes, quenched prenylated peptide cleavage fluorescence; calls only; 290,000 compounds, 0.27% hits; AID 2563;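 active = fall in fluorescence gain of 50% or more versus controls, with final raw signal at or below 3038400; inconclusive = same 50% fall but final raw signal above 3038400; inactive = fall in fluorescence gain under 50%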;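 also: plate controls were neutral control wells for no effect and wells lacking membranes for full effect; tested at 10 µM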
# Target sequence (Q03530 whole entry, looked up): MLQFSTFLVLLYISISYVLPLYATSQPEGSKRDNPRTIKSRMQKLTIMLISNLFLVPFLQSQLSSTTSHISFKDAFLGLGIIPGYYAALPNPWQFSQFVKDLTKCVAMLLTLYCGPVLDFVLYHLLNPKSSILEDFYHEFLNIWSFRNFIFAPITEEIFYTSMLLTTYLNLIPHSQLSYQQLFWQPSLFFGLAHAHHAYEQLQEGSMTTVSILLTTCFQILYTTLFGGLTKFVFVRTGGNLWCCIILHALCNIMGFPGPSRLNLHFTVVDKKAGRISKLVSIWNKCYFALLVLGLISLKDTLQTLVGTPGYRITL
# MT1-MMP act inh: MT1-MMP (human) activation inhibition; P50281; HT1080 RFP-PRO-GFP cells, GFP/RFP ratio fluorescence, overnight; percent of plate control window, DMSO zero; GFP/RFP ratio change, % at 20 µM; 360,000 compounds, 0.061% hits;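 active = GFP/RFP ratio change of at least 30% with cell ATP level not reduced by more than half and red fluorescence within 50% of control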; also: strong numbers were not always called active
#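 Assay system – RFP-PRO-GFP reporter HT1080 cells · Compound dosing – single dose of 20 µM compound, 1% DMSO final · Incubation – overnight compound exposure at 37 °C · Measure – GFP/RFP fluorescence ratio · Benchmarks – DMSO wells and RFP-L50D-GFP cells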
# PABP FP inh: blocks human PABP binding to poly(A) RNA; P11940; 290,000 compounds, 1% hits; inhibition, % at 35 µM; AID 2014; fluorescence polarization;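 active = 50% or more with normal probe brightness, or confirmed in later tests; inconclusive = above 50% with abnormal brightness, or retests that disagree; inactive = below 50% or failed in later tests; about a fifth of its hits are not listed in these tables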;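 also: calls also rest on retests at 20 µM and on dose response follow-up; controls were probe without protein and protein plus probe with vehicle; some compounds called inactive have numbers as strong as hits; many hits fall short of the cut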
# Target sequence (P11940 whole entry, looked up): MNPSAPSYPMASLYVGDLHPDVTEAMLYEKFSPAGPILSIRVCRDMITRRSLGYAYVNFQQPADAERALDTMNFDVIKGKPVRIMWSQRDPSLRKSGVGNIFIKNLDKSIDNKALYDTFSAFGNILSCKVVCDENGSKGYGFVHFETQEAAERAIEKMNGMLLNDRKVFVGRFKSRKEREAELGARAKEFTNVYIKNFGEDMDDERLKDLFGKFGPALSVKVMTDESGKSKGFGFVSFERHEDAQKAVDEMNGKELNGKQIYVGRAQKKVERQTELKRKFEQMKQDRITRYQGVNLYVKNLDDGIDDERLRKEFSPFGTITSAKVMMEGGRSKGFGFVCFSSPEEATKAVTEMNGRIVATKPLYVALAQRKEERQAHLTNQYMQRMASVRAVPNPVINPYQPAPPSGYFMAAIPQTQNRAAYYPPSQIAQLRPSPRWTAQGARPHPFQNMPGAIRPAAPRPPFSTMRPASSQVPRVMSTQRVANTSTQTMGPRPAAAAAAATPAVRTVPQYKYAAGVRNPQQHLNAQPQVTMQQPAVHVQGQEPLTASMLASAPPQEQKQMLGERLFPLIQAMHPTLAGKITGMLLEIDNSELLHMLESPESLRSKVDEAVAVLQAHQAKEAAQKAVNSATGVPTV
# UUG fidelity: modulators of start codon recognition fidelity in yeast; S. cerevisiae UUG-firefly luciferase reporter, luminescence/redox ratio; activity score, % at 18.7 µM; 350,000 compounds, 0.13% hits;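 active = replicate mean at a twofold rise or more, about +100% in these data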;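 also: firefly luciferase made from a UUG start codon reports start codon fidelity; reporter light over untreated wells divided by growth signal over untreated wells; some hits fall short of that in this replicate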
# eIF4H FP inh: inhibitors of RNA binding by human eIF4H. Q15056. eIF4H fluorescence polarization binding assay. inhibition, % at 35 µM. 290,000 compounds, 0.94% hits;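 active = 50% or more with normal probe brightness, or confirmed in later tests; inconclusive = above 50% with abnormal brightness, or retests that disagree; inactive = below 50% or failed in later tests; about a fifth of its hits are not listed in these tables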;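 also: calls also rest on retests at 20 µM and on dose response follow-up; 0% = protein and probe with vehicle and 100% = probe without protein; strong numbers were not always called active; many hits fall short of the cut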
# HIV Env fusion: HIV envelope-mediated fusion inhibition. HeLa-JRFL Env/CEM21 cell fusion, luciferase. inhibition, % at 12.3 µM. 360,000 compounds, 1.1% hits;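 active = mean replicate inhibition score of at least 50 and every replicate individually at or above 50; inconclusive = only one of the two criteria met; inactive = mean below 50 and not all replicates reaching 50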;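 also: 0% = plate neutral controls and 100% = maraviroc near 300 nM; one replicate is shown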
# CSC inhib: cancer stem cell inhibition. inhibition, % at 7.5 µM. AID 2717. 300,000 compounds, 1.1% hits. cancer stem cell-like cells viability, luminescence;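 active = mean at 75% or more and at least half the replicates too; inconclusive = mean and replicates disagree; tested in HMLE shEcad cells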;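 also: 0% = median of negative and 100% = median of positive control wells; the first replicate is given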
# eIF4H FP inh retest: further read-out of eIF4H FP inh, marked with its call; inhibition, %; compound at 20 µM; confirmation average;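 mean of two retest wells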
# PABP FP inh retest: second read-out of PABP FP inh, no call of its own (marks repeat the call); inhibition, %; compound at 20 µM; confirmation repeats;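 mean of two retest wells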
# MT1-MMP act inh RFP: also measured in MT1-MMP act inh; calls as there; RFP signal change, %; measured here: RFP expression control read;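 0 = vehicle wells; hits needed this value within 50% of zero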
# Active calls of the source: *; i = inactive; ? = inconclusive; / = not tested or not shown; & = joins results of further samples; [ ] = another dose, or the depositor's remark. No enrichment for hits; overall some 2.9% were active at least once.
SMILES,Rce1 inhib,MT1-MMP act inh,MT1-MMP act inh RFP,PABP FP inh,UUG fidelity,eIF4H FP inh,HIV Env fusion,CSC inhib,others
CSc1ncccc1C(=O)Nc1ccccc1N1CCOCC1,/,-1,2,/,6,/,0,-4,
COc1ccc(OC)c2c1C(=O)c1ccccc1C2=O,i,/,/,67*,/,33,-99,-25,
COc1ccc(-c2csc(NC(CO)c3nc4ccccc4n3CCOCCO)n2)cc1 (stereo not given),i,-3,-4,/,-20,/,-28,4,
COc1ccc(C(=O)N2CCCC(CO)(Cc3ccccc3C)C2)o1 (stereo not given),i,-9,-5,7,10,-5,-3,13,
CCOc1ccc(/C=N/NC(=O)C(OC)c2ccccc2)cc1 (stereo not given),i,0,-2,9,-13,-7,3,-28,
CCOC(=O)C(CC)Sc1nnc2n1C(C)(C)Cc1ccccc1-2 (stereo not given),i,3,0,3,-10,-6,-25,/,
COc1ccc2nc(NC(=O)CNS(=O)(=O)c3cccs3)sc2c1,i,-5,-3,0,-23,5,/,-10,
CCOc1ccccc1NC(=O)c1nnn(-c2ccc3c(c2)OCCO3)c1N,i,1,-2,4,-5,1,7,12,
O=c1c(Cc2ccc(F)cc2)c(O)ccn1CCCn1ccnc1,i,-5,3,-7,/,1,-1,-6,
O=c1[nH]c2ccc(NCc3ccc(OCc4ccccc4Cl)cc3)cc2[nH]1,i,9,-6,4,-11,-4,-8,2,
N#Cc1c(-c2ccc(Cl)cc2)c2c([nH]c1=O)-c1ccccc1OC2,i,6,-2,11,-6,-11,-3,12,
CC(C)C(OC(=O)c1ccco1)C(=O)NCc1cccs1 (stereo not given),i,2,12,4,-18,-8,-37,-19,
CCOC(=O)C1(C)CCN1C(=O)c1ccc2c(c1)CCO2 (stereo not given),/,1,3,/,-2,/,-20,/,
CCOCCCNC(=O)C(c1ccc(C)cc1)N(Cc1ccc2c(c1)OCO2)C(=O)c1cnccn1 (stereo not given),i,-3,-2,-16,0,-5,-12,-8,
Cc1ccccc1Oc1nc2c(C)cccn2c(=O)c1/C=C(\C#N)C(=O)NC1CCS(=O)(=O)C1 (stereo not given),i,-2,-5,-2,-17,2,22,-5,
CC(C)CN(C(=O)c1ccc2c(c1)OCO2)C1CCS(=O)(=O)C1 (stereo not given),i,0,5,/,/,/,/,3,
CCCC(=O)N(CCc1ccccc1)Cc1nc2ccccc2c(=O)[nH]1,i,-3,-1,4,7,3,/,12,
CCN(CC(=O)NCc1ccc(F)cc1)C(=O)/C=C/c1ccc(OC)c(S(=O)(=O)NC(C)C)c1,i,8,-6,0,7,-8,6,57,
O=C(COC(=O)c1ccccc1C(=O)N1CCN(c2ccccc2)CC1)Nc1ccccc1,i,-29,-10,-9,/,20,1,1,
C=CCNc1nc(N(c2ccccc2)c2ccccc2)nc(-n2ccnc2)n1,i,-9,-9,-2,-7,-1,-16,50,
COc1cc(OC)c(NC(=O)Cn2cnc3sc(C)c(S(=O)(=O)N4CCOCC4)c3c2=O)cc1Cl,i,11,8,10,7,-4,-4,-8,
COc1ccc(C(=O)NC(CC(=O)O)c2cc([N+](=O)[O-])ccc2Cl)c(SC)c1 (stereo not given),i,0,3,39,/,2,-3,0,
Cc1ccc2c(c1)N(S(=O)(=O)c1cc(-c3onc(C)c3C)ccc1C)CCO2,i,6,-8,8,-10,5,41,54,
Cc1nnc(SCC(=O)c2c(N)n(C3CC3)c(=O)[nH]c2=O)n1C,/,-8,-3,/,10,/,23,-16,
CCOC(=O)c1cc(S(=O)(=O)NC2CCC(C)CC2)cn1C (stereo not given),i,-3,-3,/,4,/,3,-12,
O=S(=O)(NCc1ccco1)c1ccc(Cl)cc1Cl,i,2,-1,7,-11,-3,-4,-4,
Cc1cc(NC(=O)CSc2nc3ccccc3c(=O)n2CCCC(=O)NCc2ccccc2)n[nH]1,i,-7,0,-14,-7,-10,-133,-4,
Cc1ccc(OCC(=O)N(Cc2cccc(Cl)c2)C2CCS(=O)(=O)C2)cc1C (stereo not given),i,-2,0,0,13,18,?,-4,
Cc1ccc(C)c(N2CCN(C(=O)CCC(=O)Nc3nnc(CC(C)C)s3)CC2)c1,i,5,-1,3,-5,-5,13,-5,
CC(C)n1cc(CN2CCC(C(=O)Nc3cccc(-c4cscn4)c3)CC2)cn1,i,3,3,-4,-36,-4,0,/,
CCn1c(SCC(=O)NCC2CCCO2)nnc1-c1ccc(S(=O)(=O)N2CCN(C)CC2)cc1 (stereo not given),i,1,2,-2,/,-5,-1,-18,
CC(=O)Nc1sc(/C(C#N)=C/c2ccc(Cl)c(Cl)c2)nc1-c1ccc(C)cc1,/,-15,61,4,/,?,9,/,
CN(C)Cc1nnnn1-c1ccccc1,i,/,/,-2,-9,-9,6,-4,
CN1C(=O)CC(C(=O)O)SC1=Nc1ccc(F)cc1 (stereo not given),i,16,5,10,/,-2,/,-21,
COCCNc1nc(NCCNC(C)=O)c2sc(-c3ccccc3)cc2n1,/,6,3,/,-18,/,-11,/,
COc1ccc(C2=NN(C(=O)c3cccc([N+](=O)[O-])c3)C(c3cccc([N+](=O)[O-])c3)C2)cc1 (stereo not given),i,-7,-6,5,-16,-3,10,/,
O=C(CCCCCN1C(=O)c2cccc([N+](=O)[O-])c2C1=O)NCCc1ccccc1,/,1,4,/,-15,/,12,/,
CCc1nc2cccnc2n1-c1ccc(CC(=O)O)cc1,i,-7,1,27,-18,32,-2,-17,
Cc1ccc(C(=O)NCC(=O)OCC(=O)Nc2ccccc2[N+](=O)[O-])cc1,i,5,6,1,-1,-2,14,-10,
Cn1nc(C(=O)NC2CCCC2)c2ccccc2c1=O,/,-3,-2,/,-13,/,-4,/,
CC(=O)NCCOc1cccc2ccccc12,i,-3,-4,-2,-15,-11,/,1,
O=C(NC(=S)NC1CCS(=O)(=O)C1)c1ccccc1 (stereo not given),i,-2,3,0,-24,-2,-4,9,
N#C/C(=C1\CCCN1)c1nc(-c2ccccc2)cs1,i,-3,1,-11,-16,-2,/,-6,
CCCC(=O)N1CCCC1(C)C(=O)NCCc1ccccn1 (stereo not given),/,-1,10,/,-15,/,-2,/,
O=C(OC(C(=O)Nc1ccc(Cl)c(C(F)(F)F)c1)c1ccccc1)C1=COCCO1 (stereo not given),i,-5,-10,8,-7,-12,-19,-8,
CCCCN(CC)CCNC(=O)CNC(=O)Cn1ccc2ccccc2c1=O,i,-1,6,0,/,4,3,-14,
COc1ccc(NC(=O)CN(C)C(=O)CCCc2nc3ccccc3s2)cc1,i,1,-1,/,/,/,17,-8,
CCCc1ccc(-c2cc(C(=O)NN3CCOCC3)c3ccccc3n2)cc1,i,-4,-2,-10,-10,-14,-96,-21,
Cc1cccc(C(=O)O/N=C2/CC3CCC2(C)C3(C)C)c1 (stereo not given),i,3,2,0,11,-12,/,-6,
Cc1ccc(CNS(=O)(=O)c2ccc3c(c2)NC(=O)CS3)cc1,i,-2,0,-4,-11,-12,11,15,
O=c1nc(/C=C/c2cc([N+](=O)[O-])ccc2Cl)cc(C(F)(F)F)[nH]1,i,-13,-12,26,13,-6,-32,/,
CCC(NC(=O)c1ccc([N+](=O)[O-])cc1[N+](=O)[O-])c1ccccc1 (stereo not given),i,5,3,10,5,0,/,-12,
Cn1c(=O)[nH]c(=O)c2c1nc([N+](=O)[O-])n2Cc1ccccc1,i,5,-13,2,/,-4,-247,49,
O=C(O)c1cc(-c2ccc(/C=C3/SC(=S)N(Cc4ccccc4)C3=O)o2)ccc1Cl,/,-103,5,9.1*,-5,86*,9,/,eIF4H FP inh retest=94*;PABP FP inh retest=70*
Cc1nnc(SCC(=O)NCCN2C(=O)CSC2=O)n1-c1ccccc1,i,1,7,28,/,-2,-3,-4,
C[C@H](CO)N1C[C@H](C)[C@@H](CN(C)C(=O)Nc2ccc(C(F)(F)F)cc2)Oc2c(NS(=O)(=O)c3ccc(F)cc3)cccc2C1=O,/,3,1,/,-1&-26,/,9[16.7 µM],/,
COc1ccc2cc(CCNS(=O)(=O)c3ccc(NC(C)=O)cc3)c(=O)[nH]c2c1,i,-3,0,-8,-13,-2,7,-8,
CCOC1=C2CN(S(=O)(=O)c3ccc(C)cc3)[C@@H](c3ccccc3)C[C@H]2[C@H]2C(=O)N(c3ccccc3)C(=O)[C@H]2C1,/,-2,4,/,-10,/,22,/,
Cc1ccc(NC(=O)COC(=O)CCOc2ccccc2C)cc1,i,3,5,-2,-1,6,17,-35,
O=C(COC(=O)/C=C/c1ccc(F)cc1)Nc1cccc(S(=O)(=O)N2CCCC2)c1,i,0,-4,-7,/,-3,16,-2,

# (next part)
SMILES,Rce1 inhib,MT1-MMP act inh,MT1-MMP act inh RFP,PABP FP inh,UUG fidelity,eIF4H FP inh,HIV Env fusion,CSC inhib,others
COc1ccc(Nc2nc(NCCO)nc(N3CCCC3)n2)cc1,i,0,1,/,-5,/,8,-1,
COc1ccc(CCNc2ncnc3c2c(C)c(C)n3CCO)cc1OC,i,0,-7,-4,-1,-12,-13,-4,
CCN(C[C@H]1N[C@@](CC)(C(=O)OC)[C@H]2C(=O)N(C)C(=O)[C@@H]12)C(=O)c1ccc(F)cc1,/,3,6,/,-19,/,-4,/,
CCOCCn1c(N2CCN(c3ccccc3)CC2)nc2c1c(=O)[nH]c(=O)n2C,i,2,1,8,/,15,-1,/,
CCOC(=O)c1c(CN2CCN(C)CC2)oc2ccc(OC)cc12,i,2,1,13,-9,9,-33,11,
Cc1ccc(Sc2ccc(C(=O)N3CCOCC3)cc2[N+](=O)[O-])cc1,i,-3,-7,6,-5,4,9,29,
CC(=O)Nc1cc2nc(C)n(Cc3ccccc3)c2nc1C,i,-3,4,-11,-10,3,-9,-5,
CCN1CCN(c2cc(C)c3cc(NC(=S)N4CCN(c5ccc(F)cc5)CC4)ccc3n2)CC1,i,2,-2,5,-27,-3,14,?,
CCCOc1ccc(-c2nc(N)n[nH]2)cc1,i,5,6,-6,/,7,-59,-4,
O=C(NCCOc1ccccc1)C1CCCCC1,i,2,4,-11,-15,-15,-16,-22,
Cc1cc(C(=O)COc2ccccc2C(N)=O)c(C)n1CC1CCCO1 (stereo not given),i,0,-27,-1,-2,8,-5,/,
O=C(CSc1ncnc2sc3c(c12)CCC3)Nc1ccccc1C(=O)O,i,2,1,28,-31,-9,9,14,
CCN(CC(=O)Nc1c(F)cccc1F)C(=O)c1ccc(Cl)c(S(=O)(=O)N2CCCC2)c1,i,1,1,/,-13,/,-4,-7,
Cc1c(N/C=C/C(=O)c2cccs2)c(=O)n(-c2ccccc2)n1C,i,2,6,10,/,13,/,-15,

# 4 records drawn at random from those above:
SMILES,Rce1 inhib,MT1-MMP act inh,MT1-MMP act inh RFP,PABP FP inh,UUG fidelity,eIF4H FP inh,HIV Env fusion,CSC inhib,others
CCOCCCNC(=O)C(c1ccc(C)cc1)N(Cc1ccc2c(c1)OCO2)C(=O)c1cnccn1 (stereo not given),i,-3,-2,-16,0,-5,-12,-8,
CC(C)n1cc(CN2CCC(C(=O)Nc3cccc(-c4cscn4)c3)CC2)cn1,i,3,3,-4,-36,-4,0,/,
C[C@H](CO)N1C[C@H](C)[C@@H](CN(C)C(=O)Nc2ccc(C(F)(F)F)cc2)Oc2c(NS(=O)(=O)c3ccc(F)cc3)cccc2C1=O,/,3,1,/,-1&-26,/,9[16.7 µM],/,
CC(=O)NCCOc1cccc2ccccc12,i,-3,-4,-2,-15,-11,/,1,
